Screens from PubChem BioAssay.
miR-21 reporter = raises the signal of a miR-21 reporter; HeLa miR-21 FLuc reporter, luciferase, 48 h; Potency, µM (doses to about 38.3 µM), without a hit: at the top dose reporter change, positive = more light; 340,000 tested, under 10 active; active = well fitted rising curve with a large enough effect; inconclusive = small, poorly fitted or top-dose-only effect; inactive = no such curve, though single readings can be large or run the other way;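 also: % of control where 0% means no effect; miR-21 action dims this reporter so a rising signal means less miR-21 action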
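HeLa miR-21-FLuc reporter line, endogenous miR-21; 2000 cells/well in DMEM/10% FBS; compound titration up to ~40uM final, 48 h, 37 degree Celsius; luciferase detection reagent, 15 min lysis, CCD luminescence.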
* hit, by the source's call; ? = inconclusive. Some of the compounds tested; count on the stated rates, not on these rows.

SMILES,miR-21 reporter
CCCc1nn2c(=O)cc(COC(=O)c3ccccc3NC(=O)COc3ccccc3F)nc2s1,-5%
COc1ccc(-c2nc(C)c(CCNS(=O)(=O)c3cc(C)c(C)cc3C)s2)cc1,13%
O=C1COc2ccc(-c3cc(-c4ccccc4)c4c(n3)-c3ccccc3OC4)cc2N1,-6%
O=C(c1cccs1)N(Cc1cccnc1)c1nc2c(F)cc(F)cc2s1,-1%
CN1CCN(C(CNC(=O)c2ccccc2F)c2ccc3c(c2)OCO3)CC1 (stereo unspecified),-7%
CCc1nn2c(=O)cc(COC(=O)c3ccccc3NC(=O)c3ccc(C(C)(C)C)cc3)nc2s1,-18%
Fc1ccc(C(Nc2ccc(Cl)c(C(F)(F)F)c2)c2nnc(-c3ccccc3)o2)cc1 (stereo unspecified),24%
Cc1ccc(CNC(=O)CN(c2cc(C)cc(C)c2)S(=O)(=O)c2c(C)[nH]c(=O)[nH]c2=O)cc1,1%
Cc1ccc(S(=O)(=O)CC(=O)Nc2sc3c(c2C(N)=O)CCCC3)cc1,-3%
COCCn1c(SCC(=O)c2c[nH]c3ccccc23)nc2cc(C(=O)NCC(C)C)ccc2c1=O,0%
Cc1ccc(C(=O)Nc2ccc3oc(-c4cccnc4)nc3c2)c(Cl)c1,-12%
COc1ccc(-n2c(SCC(=O)N3CCCc4ccccc43)nc3c([nH]c4ccccc43)c2=O)cc1,-2%
CCOc1ccc(-n2c(SCC(=O)NC3CCCCC3)nc3c([nH]c4ccccc43)c2=O)cc1,-5%
COc1ccc(C(=O)Nc2cc3cc(Cl)ccc3oc2=O)cc1OC,-12%
CC(=O)c1ccc(NC(=O)CSc2nnc3ccc(-c4ccc(Cl)cc4)nn23)cc1,6%
COc1ccc(N2CCN(C(=O)CS(=O)(=O)c3cccc4nsnc34)CC2)cc1,29%
CCOC(=O)c1c(C)sc(-c2c(-c3ccc4c(c3)OCCO4)[nH]c3c2c(=O)n(C)c(=O)n3C)c1O,-7%
COc1ccc(NC(=O)c2cc(C3CC3)nc3c2c(C)nn3-c2ccc(C)cc2)cc1OC,-6%
COc1ccc(CNC(=O)Cc2c(C(=O)O)c(C)cn2C)cc1,0%
O=C(O)CCn1c(=O)c2cccn2c2cccnc21,-1%
COc1cc(OC)c(NC(=O)N2CCc3cc(S(=O)(=O)N4CCC(C)CC4)ccc32)cc1Cl,-5%
CCn1ccc2cc(S(=O)(=O)N3CCC(C(=O)NCc4ccc(OC)cc4)CC3)ccc21,1%
CCc1cccc(NC(=O)Cn2c(=O)n(Cc3ccccc3)c(=O)c3c2c2cc(OC)ccc2n3C)c1,-1%
CCOC(=O)c1c(C)[nH]c(C)c1S(=O)(=O)N1CCCC(C(=O)N2CCN(c3ccccc3)CC2)C1 (stereo unspecified),8%
COc1ccc(C(=O)NCC(c2cccnc2)N2CCc3ccccc3C2)cc1 (stereo unspecified),1%
COc1cc(NC(=O)c2cc3c(=O)n(Cc4ccco4)ccc3nc2C)cc(OC)c1OC,-2%
Cc1cccc(Nc2nnc(-c3ccc(C)c(S(=O)(=O)N4CCN(C)CC4)c3)c3ccccc23)c1,25%
COc1ccc(Cn2cc(C(=O)c3ccc(F)cc3)c(=O)c3cc4c(cc32)OCCO4)cc1,-9%
COc1ccccc1N1CCN(C(=O)CSc2nc3ccccc3nc2Cc2ccc(C)cc2)CC1,-1%
O=C(CSc1nccn1Cc1ccc(Cl)cc1)NCc1ccccc1,15%
CCOc1cccc(CNC(=O)c2ccc(N3CCCC3)c(NC(=O)NCc3ccccc3)c2)c1,12%
Cn1nc(-c2ccccc2)c(-c2ccccc2)c(C(=O)Nc2ccccc2C(N)=O)c1=O,-8%
CC(C)N1CCc2nc(SCC(=O)Nc3cccc(F)c3)[nH]c(=O)c2C1,-3%
COc1ccc(NC(=O)CC2C(=O)N(c3ccc(F)cc3)C(=O)N2Cc2ccco2)cc1 (stereo unspecified),4%
CCc1cccc(NC(=O)CCN2C(=O)c3ccccc3Sc3ncccc32)c1,3%
CCOc1ccc2c(c1)c(=O)c(C(=O)c1ccc(CC)cc1)cn2CC(=O)Nc1ccccc1C,-4%
CC1CCN(S(=O)(=O)c2ccc(C(=O)Nc3nc4ccc(F)cc4s3)cc2)CC1,8%
COc1ccc(CCNC(=O)c2ccc3c(c2)ncn3-c2ccc(C)cc2C)cc1OC,?
CCOc1ccccc1N(CC)C(=O)Cn1ncc2c1-c1ccccc1OC2,-2%
Cc1ccc(Cn2cc(C(=O)c3ccc(C)cc3)c(=O)c3ccc(C)nc32)cc1,-10%
O=C(CCC(=O)N1Cc2ccccc2Oc2ncccc21)NCc1ccccc1Cl,-1%
COc1ccc(-n2nc(C)c3c(C(F)(F)F)cc(-c4cccnc4)nc32)cc1,-1%
O=c1c2[nH]c3ccccc3c2nc(SCc2cccc(F)c2)n1-c1ccccc1,-3%
CC(C)(C)C(=O)OCc1cc(=O)n2nc(C3CC3)sc2n1,-42%
CCCc1noc(-c2ccc(N3CCCCC3)c([N+](=O)[O-])c2)n1,-2%
CCCCOc1ccc(C2=NC(c3cccs3)=Nc3ccc(OC)cc3N2)cc1,?
O=C(Cn1nc(C(F)(F)F)c2c1CCCC2)Nc1ccc(Br)cc1,24%
CC(Oc1ccccc1)C(=O)Nc1ccc(OCc2cc(=O)n3ccsc3n2)cc1 (stereo unspecified),-3%
O=C(CSc1nc2c([nH]c3ccccc32)c(=O)n1-c1ccc(Cl)cc1)N1CCOCC1,-9%
COc1cccc(N2CCN(C(=O)CCn3nc(C)c(S(=O)(=O)N4CCCC4)c3C)CC2)c1,21%
COc1cc(NC(=O)C(Cc2ccccc2)NS(=O)(=O)c2cccs2)cc(OC)c1 (stereo unspecified),0%
COc1ccc(OCC(=O)Nc2ccc(-c3nc4cc(C)c(C)cc4o3)cc2)cc1,-64%
COc1ccc(NC(=O)CSc2nc(-c3ccccc3)nc3c2Cc2c(CO)cnc(C)c2O3)cc1Cl,2%
COc1cccc(Cn2c(CNC(=O)Cc3cccc(C)c3)nc3cccnc32)c1,-4%
COc1ccc(NC(=O)C(C(C)C)N2Cc3ccccc3C2=O)cc1 (stereo unspecified),23%
CCN(CC)S(=O)(=O)c1cc(-c2ccc(=O)n(C(C)C(=O)Nc3cccc(C#N)c3)n2)ccc1C (stereo unspecified),0%
O=C(CSc1cn(CC(=O)N2CCCC2)c2ccccc12)Nc1ccccc1C(F)(F)F,6%
COc1cc(C2c3c(oc4ccccc4c3=O)C(=O)N2Cc2ccccc2Cl)ccc1O (stereo unspecified),-2%
CCCCN(CCCC)S(=O)(=O)c1ccc2oc(C(=O)NCc3ccccc3)c(C)c2c1,21%
CCn1c2ccccc2c2nnc(SCC(=O)Nc3ccccc3OC)nc21,2%

(next part)
SMILES,miR-21 reporter
O=C(O)CCCNc1cc(N2CCN(C3CCCCC3)CC2)c2noc3c2c1C(=O)c1ccccc1-3,5%
COc1ccc2c(c1)-c1nc(NC(=O)c3cccc(Br)c3)sc1CC2,-3%
CCCC(O)c1nc2ccccc2n1CCCCOc1ccc(OC)cc1 (stereo unspecified),-26%
Cc1ccc(-c2noc(-c3ccccc3NC(=O)C3CC(=O)N(c4cccc(C)c4)C3)n2)cc1 (stereo unspecified),0%
CCOc1ccc(NC(=O)CSc2oc(-c3cccs3)nc2S(=O)(=O)c2ccc(C)cc2)cc1,15%
Cc1ccc2oc(=O)c3cc(C(=O)NCCc4ccc(Cl)cc4)sc3c2c1,0%
Cc1ccc(CNC(=O)c2ccc(Cn3c(=O)c4ccccc4n(CC(=O)Nc4ccc(C)cc4C)c3=O)cc2)cc1,-2%
Cc1ccc(Cn2ccn(Cc3ccccc3C)c(=O)c2=O)cc1,10%
COc1cccc2c1C(=O)O/C2=C/c1ccc2c(c1)OCO2,-81%
COc1ccc(C2c3c(n(C)c4ccccc34)C(=O)N2CC(=O)Nc2ccc(F)cc2)cc1 (stereo unspecified),-1%
Cc1ccc(NC(=O)C2CCCN2S(=O)(=O)c2cccc3cccnc23)cc1C (stereo unspecified),0%
COc1cccc(-c2nc(S(=O)(=O)c3ccc(C)cc3)c(N3CCCCC3)o2)c1,0%
Oc1c(C(c2ccccc2Cl)N2CCC(O)CC2)sc2nc(-c3ccco3)nn12 (stereo unspecified),-6%
Cc1c(C)n(Cc2ccccc2)c2ccc(C(=O)N3CCN(c4ccccc4F)CC3)cc12,-8%
COc1ccccc1CNC(=O)c1ccc(CSc2nc3ccncc3n2Cc2cccc(F)c2)cc1,7%
Cc1ccc2ncc(C(=O)c3ccc(C)c(C)c3)c(S(=O)(=O)c3ccc(F)cc3)c2c1,25%
O=C(CCC1N=C2c3ccccc3N=C(SCC(=O)Nc3ccc(F)cc3)N2C1=O)NCc1ccco1 (stereo unspecified),19%
CC(=O)NCc1nc2cccnc2n1Cc1ccccc1,0%
CCc1ccc(NC(=O)CSc2nc(C)c(C(=O)Nc3ccc(Cl)cc3)c(-c3ccc(OC)cc3)c2C#N)cc1,-3%
COc1ccc(-c2nc(C)c(CCNS(=O)(=O)c3ccc(F)cc3)s2)cc1OC,7%
COc1ccc(NC(=O)CSc2nc3c([nH]c4ccccc43)c(=O)n2-c2ccccc2)c(OC)c1,-11%
O=C(c1cc(-c2ccc(Cl)cc2)n[nH]1)N1CCN(S(=O)(=O)c2ccc(Br)s2)CC1,12%
CC(=O)c1ccc(NC(=O)c2nc(-c3ccccc3)n(-c3ccc(Cl)cc3)n2)cc1,1%
CCOc1ccc2nc(NC(=O)c3nc(SCc4ccccc4C)ncc3Cl)sc2c1,-20%
Cc1ccc(Cl)cc1NC(=O)c1cc(CN2CCCC2)on1,-15%
CSCCC(NS(=O)(=O)c1ccc2c(c1)oc(=O)n2C)C(=O)NCCc1ccc(C)cc1 (stereo unspecified),-1%
COCCn1c(SCC(=O)c2ccc(C)cc2)nc2cc(C(=O)NC3CCCC3)ccc2c1=O,2%
COc1cccc2cc(S(=O)(=O)c3ccc(F)c(C)c3)c(=O)oc12,0%
Cc1cccc(C)c1NC(=O)c1cc2sccc2n1Cc1ccc(F)cc1,-7%
COc1ccc(-n2cnc3cc(C(=O)NCCC4=CCCCC4)ccc32)cc1,-16%
COC(=O)c1ccccc1NC(=O)CSc1nc(C)c(Cl)c(C)c1C#N,-1%
CC(C)c1ccc(S(=O)(=O)c2cnc(SCC(=O)Nc3ccc4c(c3)OCCO4)[nH]c2=O)cc1,6%
CC(=O)c1cccc(NC(=O)[C@H](Cc2ccccc2)N2Cc3ccccc3C2=O)c1,-20%
Cc1ccc(CNC(=O)Cn2c(=O)n(-c3ccc(Cl)cc3)c(=O)c3c(C)c(C)sc32)cc1,6%
COc1ccc(N2C(N)=C(C#N)C(c3cc(CN4CCOCC4)cs3)C3=C2CCCC3=O)cc1 (stereo unspecified),3%
COc1ccc(NC(=O)Cn2cc(C(=O)c3ccncc3)c(=O)c3cc(C)ccc32)cc1Cl,-2%
COc1ccccc1NC(=O)CSc1oc(-c2cccs2)nc1S(=O)(=O)c1ccc(C)cc1,-11%
CC(=O)c1c(C)n(S(=O)(=O)c2ccc(Cl)cc2)c2ccc(NS(=O)(=O)c3ccc(Cl)cc3)cc12,-3%
CCOC(=O)c1cccc(NC(=O)CN2C(=O)c3ccccc3Sc3ncccc32)c1,27%
CC1=C(C(=O)Nc2c(C)cc(C)cc2C)C2(CCN(C(C)C)CC2)OC1=O,-1%
CCC(=O)N1c2ccccc2CC1C(=O)NCCN1CCN(c2cccc(Cl)c2)CC1 (stereo unspecified),9%
O=C(NCc1ccccc1)C(=O)NCC(c1ccc2c(c1)OCO2)N1CCOCC1 (stereo unspecified),1%

By substructure: the compounds so far with two or more sulfur atoms (14)
SMILES,miR-21 reporter
COc1ccc(-c2nc(C)c(CCNS(=O)(=O)c3cc(C)c(C)cc3C)s2)cc1,13%
O=C(c1cccs1)N(Cc1cccnc1)c1nc2c(F)cc(F)cc2s1,-1%
Cc1ccc(S(=O)(=O)CC(=O)Nc2sc3c(c2C(N)=O)CCCC3)cc1,-3%
COc1ccc(N2CCN(C(=O)CS(=O)(=O)c3cccc4nsnc34)CC2)cc1,29%
CC1CCN(S(=O)(=O)c2ccc(C(=O)Nc3nc4ccc(F)cc4s3)cc2)CC1,8%
COc1cc(NC(=O)C(Cc2ccccc2)NS(=O)(=O)c2cccs2)cc(OC)c1 (stereo unspecified),0%
CCOc1ccc(NC(=O)CSc2oc(-c3cccs3)nc2S(=O)(=O)c2ccc(C)cc2)cc1,15%
COc1ccc(-c2nc(C)c(CCNS(=O)(=O)c3ccc(F)cc3)s2)cc1OC,7%
O=C(c1cc(-c2ccc(Cl)cc2)n[nH]1)N1CCN(S(=O)(=O)c2ccc(Br)s2)CC1,12%
CCOc1ccc2nc(NC(=O)c3nc(SCc4ccccc4C)ncc3Cl)sc2c1,-20%
CSCCC(NS(=O)(=O)c1ccc2c(c1)oc(=O)n2C)C(=O)NCCc1ccc(C)cc1 (stereo unspecified),-1%
CC(C)c1ccc(S(=O)(=O)c2cnc(SCC(=O)Nc3ccc4c(c3)OCCO4)[nH]c2=O)cc1,6%
COc1ccccc1NC(=O)CSc1oc(-c2cccs2)nc1S(=O)(=O)c1ccc(C)cc1,-11%
CC(=O)c1c(C)n(S(=O)(=O)c2ccc(Cl)cc2)c2ccc(NS(=O)(=O)c3ccc(Cl)cc3)cc12,-3%
